2A StopGo – FMDV 2A StopGo reporter, luciferase signal | AID 1159524 | Potency, µM (series often up to 57.9 µM), for inactives: at the top dose signal change, negative = less light | hit rate 1.2% among 410,000 | human cells with a luciferase reporter of 2A StopGo recoding; control for the full effect not named in the record; active = well fitted falling curve with a large enough effect; inconclusive = small, poorly fitted or top-dose-only effect; inactive = no such curve, though single readings can be large or run the other way; tested in HEK293T cells; also: % is scaled to controls: 0 for no effect and ±100 for the full control effect; nearly all actives have a fitted effect of over 45% in size; luciferase light after 4 h
RE007 growth inh – less growth of the S. pombe RE007 Vpr strain; S. pombe RE007 Vpr strain, BacTiter-Glo ATP luminescence, 24 h; control for the full effect not named in the record; Potency, µM (top dose mostly 92.2 µM), without a hit: top-dose activity change, negative = less growth; hit rate 0.21% among 360,000; active = well fitted falling curve with a large enough effect; inconclusive = small, poorly fitted or top-dose-only effect; inactive = no such curve, though single readings can be large or run the other way;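 also: % is scaled to controls: 0 for no effect and ±100 for the full control effect; nearly all actives have a fitted effect of over 50% in size; the assay follows cell death caused by Vpr and the record does not say whether a fall means rescue or toxicity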
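Fission yeast RE007 carrying one integrated HIV-1 vpr copy, seeded at OD 0.01 in PMG+AL medium with 23 nL pinned compound. Grown 24 h at 30 degrees; viability read by BacTiter-Glo luminescence after 5 min.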
SARS PLpro yeast – SARS-CoV PLP inhibition in yeast; S. cerevisiae expressing SARS-CoV PLpro, growth rescue; control for the full effect not named in the record; Potency, µM (titrated, usually from 32.9 µM), for the others: at the highest dose activity, positive = growth rescue; hit rate 0.19% among 330,000; AID 485353; also: 0% is about no effect; nearly all actives have a fitted effect of over 55% in size; growth read by luminescence after 48 h
NS1 function inh – inhibitors of influenza NS1 protein function. S. cerevisiae slowed by influenza A NS1, growth recovery by OD600. Potency, µM (doses to about 46.1 µM), for inactives: at the top dose activity, positive = more growth. hit rate 0.4% among 270,000. AID 2326; also: actives are rising curves; nearly all actives have a fitted effect of over 50% in size
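Compounds were scored for reversing the slow growth caused by influenza A NS1 in S. cerevisiae, measured by optical density at 600 nm. Assay medium contained 2% galactose at pH 6.0; NS1-free yeast of the same strain were the positive control.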
Marburg entry inh – blocks Marburg virus binding to or entry into cells; Potency, µM (highest dose often 37.8 µM), for the others: at the highest dose activity change, negative = inhibition, actives largely listed as inhibitors; AID 540276; hit rate 1.8% among 300,000; Marburg virus pseudotyped entry inhibition, cell reporter; control for the full effect not named in the record; about a third of the inactives were read at about 46 µM; active = well fitted inhibition curve with a large enough effect; inconclusive = small, poorly fitted or top-dose-only effect, or effect the other way; inactive = flat fitted curve, though single readings scatter; tested in HEK293 cells; about a fifth of its hits are not listed in these tables; also: % is scaled to controls: 0 for no effect and ±100 for the full control effect; luciferase read-out
LASV entry inh – blocks Lassa virus binding to or entry into cells; Lassa virus pseudotype entry inhibition, cell reporter; control for the full effect not named in the record; Potency, µM (series often up to 37.9 µM), without a hit: top-dose activity change, negative = inhibition, usual class: inhibitors; hit rate 1.2% among 300,000; AID 540256; active means well fitted inhibition curve with a large enough effect; inconclusive means small, poorly fitted or top-dose-only effect, or effect the other way; inactive means flat fitted curve, though single readings scatter; tested in HEK293 cells; also: % is scaled to controls: 0 for no effect and ±100 for the full control effect; nearly all actives have a fitted effect of over 50% in size; luciferase read-out
Cruzain noTriton – blocks cruzain activity in detergent-free assay; hit rate 2.3% among 200,000; purified cruzain, Z-FR-AMC fluorescence, no detergent; Potency, µM, for inactives: max response, negative = inhibition, usual class: inhibitors; P25779; AID 1476; active = well fitted curve in the direction sought with a large enough effect; inconclusive = small, poorly fitted or top-dose-only effect, or another doubt; inactive = no such curve, though single readings can be large; an effect the other way counts as inactive or inconclusive;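 also: plate controls were enzyme without inhibitor for no effect and buffer without enzyme for full effect; nearly all actives have a fitted effect of over 40% in size; top concentration of the series not given in the record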
Target sequence (P25779 123-467 limits assumed): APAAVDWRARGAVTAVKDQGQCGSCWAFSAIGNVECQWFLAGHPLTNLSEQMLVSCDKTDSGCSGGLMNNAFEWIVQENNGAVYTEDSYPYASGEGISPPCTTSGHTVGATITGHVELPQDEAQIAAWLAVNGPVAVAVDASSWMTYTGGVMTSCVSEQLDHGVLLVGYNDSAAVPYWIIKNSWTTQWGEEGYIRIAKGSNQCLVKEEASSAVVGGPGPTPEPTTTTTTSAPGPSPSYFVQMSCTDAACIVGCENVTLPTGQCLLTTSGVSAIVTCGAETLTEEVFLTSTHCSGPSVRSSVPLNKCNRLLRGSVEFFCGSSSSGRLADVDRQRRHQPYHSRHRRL
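Purified cruzain at 1.5 nM, pre-incubated 15 min with compound at room temperature in 100 mM sodium acetate pH 5.5, 5 mM DTT, 0.00005% Triton X-100. Reaction started with 2 uM Z-FR-AMC; AMC fluorescence increase over 60 s gives rate.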
Cruzain inh Det – inhibitors of Trypanosoma cruzi cruzain with detergent; purified cruzain, Z-FR-AMC fluorescence, 0.01% Triton; Potency, µM, for inactives: max response, negative = inhibition, actives largely listed as inhibitors; hit rate 0.43% among 200,000; AID 1478; active = well fitted curve in the direction sought with a large enough effect; inconclusive = small, poorly fitted or top-dose-only effect, or another doubt; inactive = no such curve, though single readings can be large; an effect the other way counts as inactive or inconclusive;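 also: plate controls were neutral wells for no effect and buffer without enzyme for full effect; nearly all actives have a fitted effect of over 40% in size; top concentration of the series not given in the record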
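Sodium acetate buffer (100 mM, pH 5.5) containing 5 mM DTT and 0.01% Triton X-100 hosted 1.5 nM cruzain and test compound for 15 min at room temperature. Cleavage of 2 uM Z-FR-AMC was then tracked by fluorescence.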
Starred values were filed as active, the others as inactive; & = joins results of further samples; [ ] = remark or other dose. Unless noted, calls follow the shape of the dose curve; as a rule, active means well fitted rising curve with a large enough effect; inconclusive means small, poorly fitted or top-dose-only effect; inactive means no such curve, though single readings can be large or run the other way. Potency is read from the fitted curve at half-maximal effect.

Results for O=C(O)c1ccc2c(c1)C(=O)N(c1cc([N+](=O)[O-])ccn1)C2=O ?
2A StopGo: 0%; RE007 growth inh: -3%; SARS PLpro yeast: 1%; NS1 function inh: -2%

Results for O=C1Nc2cc(Cl)c(Cl)cc2N(O)N1c1cccc(Cl)c1 ?
2A StopGo: 18%; RE007 growth inh: 7%; SARS PLpro yeast: 2%; NS1 function inh: 7%; Marburg entry inh: 11%; LASV entry inh: 0%; Cruzain noTriton: -4%; Cruzain inh Det: -1.8%

What do the screens show for `Cc1ccc(CN2C(=O)CCC2C(=O)NCc2ccco2)cc1` (stereo not drawn)?
2A StopGo: -13%; RE007 growth inh: -7%; SARS PLpro yeast: 4%; NS1 function inh: 2%; Marburg entry inh: 2%; LASV entry inh: 0%; Cruzain noTriton: 1%; Cruzain inh Det: 1.4%

How did O=C(Cn1ncc(N2CCOCC2)c(Br)c1=O)c1ccc(Cl)cc1 do in these assays?
2A StopGo: 31%[activator]; RE007 growth inh: -9%; SARS PLpro yeast: 1%; NS1 function inh: -2%

How did CC(=O)Nc1ccc(S(=O)(=O)Nc2cccc(-c3cn4cccnc4n3)c2)cc1 do in these assays?
2A StopGo: 10%; RE007 growth inh: -3%; SARS PLpro yeast: -1%; Marburg entry inh: 3%[46.1 µM]; LASV entry inh: -6%

Results for Cc1cc(S(=O)(=O)Nc2ccc3c(c2)COC3=O)ccc1F ?
2A StopGo: 105%[activator]; RE007 growth inh: 4%; SARS PLpro yeast: 0%; NS1 function inh: 3%; Marburg entry inh: 5%[46.1 µM]; LASV entry inh: 3%

Results for O=C(N/N=C/c1ccc(Br)cc1)c1ccccc1-n1cccc1 ?
2A StopGo: 0%; RE007 growth inh: -4%; SARS PLpro yeast: -12%; NS1 function inh: -7%; Marburg entry inh: inconclusive; LASV entry inh: inconclusive; Cruzain noTriton: 5%; Cruzain inh Det: -5.9%

How did Cc1cc(C(=O)CSc2nnc(-c3ccccc3)n2-c2ccccc2)c(C)n1-c1ncn[nH]1 do in these assays?
2A StopGo: -3%; RE007 growth inh: 7%; SARS PLpro yeast: -2%; NS1 function inh: 0%; Marburg entry inh: -5%; LASV entry inh: -17%; Cruzain noTriton: inconclusive; Cruzain inh Det: -3.6%

Results for COc1cc(NC(=O)c2cc3nc(-c4ccc(C)cc4)cc(C(F)(F)F)n3n2)cc(OC)c1OC ?
2A StopGo: -6%; LASV entry inh: 0%[46.1 µM]; Cruzain noTriton: -2%; Cruzain inh Det: -0.1%

Results for Cc1ccccc1C(=O)OCC(=O)N(C)c1c(N)n(Cc2ccccc2)c(=O)[nH]c1=O ?
2A StopGo: 47%[activator]; RE007 growth inh: 5%; SARS PLpro yeast: 1%; Marburg entry inh: -7%[46.1 µM]; LASV entry inh: 19%

How did CCOC(=O)CSc1nc2sc3c(c2c(=O)n1-c1ccc(OCC)cc1)CCN(C)C3 do in these assays?
2A StopGo: -12%; RE007 growth inh: 4%; SARS PLpro yeast: 0%; NS1 function inh: 0%

How did CC1Sc2ccc(S(=O)(=O)CCC(=O)NC3CCCCCC3)cc2NC1=O (stereo not drawn) do in these assays?
2A StopGo: -29%; RE007 growth inh: 2%; SARS PLpro yeast: 3%; NS1 function inh: 2%

Results for Cn1cccc1C(=O)OCC(=O)N1CCN(c2ccccc2)CC1 ?
2A StopGo: 0%; RE007 growth inh: -11%; SARS PLpro yeast: 3%; Marburg entry inh: 13%[46.1 µM]; LASV entry inh: -6%[46.1 µM]

Results for CCn1c(SCC#N)nc2ccccc2c1=O ?
2A StopGo: -13%; RE007 growth inh: -4%; SARS PLpro yeast: 0%; NS1 function inh: -3%

Results for CC(=O)c1cccc(NC(=O)COc2ccc(S(=O)(=O)N3CCOCC3)cc2)c1 ?
2A StopGo: 17%; RE007 growth inh: 4%; SARS PLpro yeast: 7%; NS1 function inh: 5%; Marburg entry inh: -12%[46.1 µM]; LASV entry inh: inconclusive

Results for C/C(CC(=O)Nc1ccc(Cl)cc1Cl)=N\NC(=O)c1ccncc1 ?
2A StopGo: -6%; RE007 growth inh: 12%; SARS PLpro yeast: -3%; NS1 function inh: 22%

What do the screens show for `CSCCC(NC(=O)CCN1C(=O)c2ccccc2C1=O)C(=O)O` (stereo not drawn)?
2A StopGo: -15%; RE007 growth inh: -3%; SARS PLpro yeast: -12%; NS1 function inh: 8%; Marburg entry inh: 4%; LASV entry inh: -1%; Cruzain noTriton: 3%; Cruzain inh Det: 4.3%

How did COc1ccc2c(c1OC)C(=O)O[C@H]2[C@@H]1c2cc3c(cc2CCN1C)OCO3 do in these assays?
2A StopGo: -8%; RE007 growth inh: 3%[18.4 µM]; Marburg entry inh: 22%&22%&22%; LASV entry inh: -17%

How did CSC1=NC2(CC(c3ccccc3)Oc3cc(O)ccc32)CC(C)(C)N1 (stereo not drawn) do in these assays?
2A StopGo: 10%; RE007 growth inh: 7%; SARS PLpro yeast: -1%; NS1 function inh: -2%; Marburg entry inh: inconclusive; LASV entry inh: 2%; Cruzain noTriton: -28%; Cruzain inh Det: inconclusive

Results for COc1cccc(-c2ccc(C#N)c(OC(=O)c3c(Cl)cccc3Cl)n2)c1 ?
2A StopGo: -24%; RE007 growth inh: -27%; SARS PLpro yeast: -2%; NS1 function inh: 6%; Marburg entry inh: inconclusive; LASV entry inh: inconclusive; Cruzain noTriton: inconclusive; Cruzain inh Det: -5.4%

Results for O=C(NCCOc1ccccc1)[C@@H]1CCCN1C(=O)c1cccs1 ?
2A StopGo: 4%; RE007 growth inh: 8%; Marburg entry inh: -22%[46.1 µM]; LASV entry inh: -3%[46.1 µM]

What do the screens show for `COc1cccc(C(=O)NC2(C(F)(F)F)N=C3SCCN3C2=O)c1` (stereo not drawn)?
2A StopGo: 0%; RE007 growth inh: -4%; SARS PLpro yeast: 7%; NS1 function inh: 11%; Marburg entry inh: 2%; LASV entry inh: 7%; Cruzain noTriton: -4%; Cruzain inh Det: -6.6%

How did Nc1nc2c(F)cccc2s1 do in these assays?
2A StopGo: 5%; RE007 growth inh: 6%; SARS PLpro yeast: -26%; NS1 function inh: 0%; Marburg entry inh: 19%; LASV entry inh: -2%; Cruzain noTriton: 4%; Cruzain inh Det: -2.7%

How did CC1(C)CC(=O)C2=C(C1)OC(N)=C(C#N)C21C(=O)N(Cc2ccccc2Cl)c2ccccc21 (stereo not drawn) do in these assays?
2A StopGo: -23%; RE007 growth inh: -1%; SARS PLpro yeast: 1%; NS1 function inh: -4%; Marburg entry inh: inconclusive; LASV entry inh: -4%; Cruzain noTriton: inconclusive; Cruzain inh Det: 2.1%

How did CCC(NC(=S)Nc1ccccc1)C(=O)O (stereo not drawn) do in these assays?
2A StopGo: -8%; RE007 growth inh: 4%; SARS PLpro yeast: 15%; NS1 function inh: 10%; Marburg entry inh: 17%; LASV entry inh: 1%; Cruzain noTriton: -7%; Cruzain inh Det: 1.6%

Results for CCc1nnc(NS(=O)(=O)c2ccc(NC(=S)NC(=O)/C=C/c3ccc(C(C)C)cc3)cc2)s1 ?
RE007 growth inh: 5%; SARS PLpro yeast: -6%; NS1 function inh: -13%; Marburg entry inh: -4%; LASV entry inh: -20%; Cruzain noTriton: inconclusive; Cruzain inh Det: 14µM*

How did O=C(CSc1nnc2c(Cl)cc(C(F)(F)F)cn12)Nc1ccc2c(c1)OCO2 do in these assays?
2A StopGo: -5%; RE007 growth inh: 16%; SARS PLpro yeast: 8%; NS1 function inh: inconclusive; Marburg entry inh: 18%&18%; LASV entry inh: 9%; Cruzain noTriton: 9%; Cruzain inh Det: 2.0%

Results for CCC(=O)N/C(=N/c1nc(C)cc(C)n1)Nc1ccc(OC)cc1 ?
2A StopGo: -12%; RE007 growth inh: 6%; SARS PLpro yeast: -8%; NS1 function inh: 5%; Marburg entry inh: -7%; LASV entry inh: 1%; Cruzain noTriton: -1%; Cruzain inh Det: -2.4%

Results for COCCCNC(=S)N(CCN(C)C)Cc1cc2cc3c(cc2[nH]c1=O)OCCO3 ?
2A StopGo: -3%; RE007 growth inh: 6%; SARS PLpro yeast: 0%; NS1 function inh: 15%; Marburg entry inh: -16%; LASV entry inh: -1%

Results for CCOC(=O)c1sc2nc(C)nc(NCc3cccnc3)c2c1C ?
2A StopGo: -10%; RE007 growth inh: -3%; SARS PLpro yeast: -6%; Marburg entry inh: -1%[46.1 µM]; LASV entry inh: inconclusive

What do the screens show for `COc1ccc(CN2CCCC(C(=O)N3CCc4ccccc4C3)C2)cc1OC` (stereo not drawn)?
2A StopGo: -29%; RE007 growth inh: -16%; SARS PLpro yeast: inconclusive; NS1 function inh: -2%

What do the screens show for `CC1=NN(c2ccc([N+](=O)[O-])cc2)C(=O)/C1=C\N(C)C`?
2A StopGo: 14%; RE007 growth inh: 6.3µM*; SARS PLpro yeast: -82%; NS1 function inh: 1%; Marburg entry inh: 8%; LASV entry inh: 7%; Cruzain noTriton: 7%; Cruzain inh Det: -9.8%

Results for CCCCn1c(SCC(=O)OCC)nc2c1c(=O)[nH]c(=O)n2C ?
2A StopGo: -23%; RE007 growth inh: -9%; SARS PLpro yeast: 6%; NS1 function inh: inconclusive; Marburg entry inh: -15%; LASV entry inh: 7%; Cruzain noTriton: 3%; Cruzain inh Det: 0.9%

What do the screens show for `CCOc1ccccc1NC(=O)NCCn1c(=O)oc2ccc(C)cc21`?
2A StopGo: -14%; Marburg entry inh: inconclusive; LASV entry inh: inconclusive; Cruzain noTriton: 7%; Cruzain inh Det: -1.2%

What do the screens show for `O=C(COC(=O)C1CCN(S(=O)(=O)c2c(Cl)cccc2Cl)CC1)NCc1ccco1`?
2A StopGo: -2%; RE007 growth inh: 23%; SARS PLpro yeast: -7%; Marburg entry inh: 21%; LASV entry inh: -2%

Results for CCOC(=O)c1nnn(C(CC)C(=O)Nc2c(C)cccc2C)c1C(=O)OCC (stereo not drawn) ?
2A StopGo: -24%; Marburg entry inh: -16%[46.1 µM]; LASV entry inh: 23%[46.1 µM]; Cruzain noTriton: -5%; Cruzain inh Det: 0.5%
